Ecoli growth: E. coli growth inhibition | OD600 absorbance (test concentration not listed) | AID 1053175 | Escherichia coli growth, OD600, 23 h; active compounds read low | actives 0.21% (n = 330,000);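 active means OD600 absorbance below the run mean of sample wells minus 3.6 SD, in any replicate, cut at about 0.56 in these data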;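 further: stock transfer was 300 nL into about 60 µL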
MLL AF4-AF9 inh: inhibitors of human MLL-AF4/AF9 interaction. AlphaScreen, biotin-AF4 peptide binding to FLAG-AF9. inhibition, % at 10 µM. actives 0.47% (n = 350,000). AID 651704;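 active means every replicate reaching a set inhibition limit, whatever the replicate mean, cut at about 25% in these data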;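 further: 0% = plate neutral control median and 100% = total signal loss; the record names both 10 and 1 µM as test concentration; the first replicate is given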
Target sequence (P42568 whole entry, looked up): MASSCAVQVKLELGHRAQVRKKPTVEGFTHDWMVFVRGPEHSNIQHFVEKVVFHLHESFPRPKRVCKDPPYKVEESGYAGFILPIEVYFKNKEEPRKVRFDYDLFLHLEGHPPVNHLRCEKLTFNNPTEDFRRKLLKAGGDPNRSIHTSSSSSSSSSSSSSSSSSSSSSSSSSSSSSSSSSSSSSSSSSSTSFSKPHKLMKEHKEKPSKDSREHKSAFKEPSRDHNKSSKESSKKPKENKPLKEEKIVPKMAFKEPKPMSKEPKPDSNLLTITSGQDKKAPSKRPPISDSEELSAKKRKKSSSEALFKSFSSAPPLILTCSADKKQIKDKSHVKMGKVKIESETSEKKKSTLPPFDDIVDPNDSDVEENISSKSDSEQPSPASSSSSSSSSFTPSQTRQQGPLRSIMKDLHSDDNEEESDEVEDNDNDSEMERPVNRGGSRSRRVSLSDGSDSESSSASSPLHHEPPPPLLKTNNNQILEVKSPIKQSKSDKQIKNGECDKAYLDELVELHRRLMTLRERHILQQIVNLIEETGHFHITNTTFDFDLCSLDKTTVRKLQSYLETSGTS
T cruzi repl: T. cruzi replication inhibition; inhibition, % (test concentration not listed); actives 1.4% (n = 300,000); T. cruzi beta-gal in NIH3T3, luminescence, 90 h;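 active means mean inhibition across valid replicates above about 55%, limit read from the data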;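 further: signal also drops with host cell toxicity which is not excluded here; 0% = plate median of DMSO wells and 100% = zero luminescence signal; higher percent means less beta-gal luminescence so fewer parasites; stock transfer was 50 nL into about 50 µL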
Beta cell apopt: blocks beta cell apoptosis; INS-1E cytokine-induced death, ATP luminescence, 48 h; percent of positive-control rescue, neutral wells zero; protection from apoptosis, % (concentration not given with the values); actives 0.8% (n = 300,000);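 active means all replicates at 75% or more, or half of them and the mean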;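 further: 0% = cytokine-treated negative control wells and 100% = positive control rescue; higher means more ATP so stronger rescue from cytokine killing; wells of about 40 µL received 100 nL stock; the first replicate is given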
FGF22 binding: FGF22 (human) thermal shift binding. Q9HCT0. calls only at 9.99 µM. recombinant FGF22 thermal shift, SYPRO orange fluorescence; percent of sucrose octasulfate shift, DMSO zero. actives 1.5% (n = 340,000). AID 651658;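 active means melting point raised past a set limit in the mean and every replicate; three in four hits are not shown here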
Target sequence (Q9HCT0 whole entry, looked up): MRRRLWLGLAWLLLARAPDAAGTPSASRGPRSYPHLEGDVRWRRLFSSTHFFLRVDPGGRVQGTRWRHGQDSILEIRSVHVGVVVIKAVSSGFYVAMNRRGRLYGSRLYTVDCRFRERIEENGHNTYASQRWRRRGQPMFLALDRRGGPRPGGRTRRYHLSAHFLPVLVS
UCH37 DUB inh: blocks the human deubiquitinase UCH37 | Q9Y5K5 | purified proteasome/UCH37, Ub-AMC cleavage fluorescence | inhibition, % (no concentration beside the values) | actives 0.33% (n = 330,000);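 active means mean of two replicates above 20%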;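 further: 0% = compound-free wells with enzyme and 100% = wells lacking proteasome; stock transfer was 100 nL into about 20 µL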
Target sequence (Q9Y5K5 whole entry, looked up): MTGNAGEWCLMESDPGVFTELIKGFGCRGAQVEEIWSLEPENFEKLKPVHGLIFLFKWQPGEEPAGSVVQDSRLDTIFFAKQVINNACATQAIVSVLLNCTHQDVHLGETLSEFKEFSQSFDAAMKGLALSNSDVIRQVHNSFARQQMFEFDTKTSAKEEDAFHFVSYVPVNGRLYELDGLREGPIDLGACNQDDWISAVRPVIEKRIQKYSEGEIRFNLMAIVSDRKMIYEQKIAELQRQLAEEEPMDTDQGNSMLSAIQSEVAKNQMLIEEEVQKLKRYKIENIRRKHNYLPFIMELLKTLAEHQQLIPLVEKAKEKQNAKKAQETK
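Material: human UCH37 enzyme supplied as purified proteasome complex. Measure: % inhibition of Ub-AMC cleavage fluorescence. Medium: pH 7.4 Tris-HCl (50 mM) with ovalbumin, ATP-MgCl2, DTT. Times: 30 min preincubation with enzyme, 25 min cleavage at room temperature. Detection: AMC fluorescence intensity at 355/460 nm.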
Ecoli rRNA inh: selective bacterial rRNA inhibition in E. coli; E. coli WT GFP vs humanized-ribosome RFP mutants, fluorescence, 24 h; active compounds read low; DMSO median 0, no signal -100; GFP signal change (wild-type ribosome), % (no concentration beside the values); actives 1.6% (n = 350,000); AID 720706;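 active means significant combined selectivity score with lowered wild-type GFP, culture density cut under 30%, mutant RFP and density less affected; inactive means any of these conditions unmet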; further: one replicate is shown; some compounds called inactive have numbers as strong as hits
A1 inh: inhibitors of the anti-apoptotic protein A1, read as caspase activation; AID 2462; MEF A1-2A-BIM cells, Caspase-Glo 3/7 luminescence, 3 h; percent of clofoctol response, vehicle zero; actives 0.066% (n = 330,000); caspase activation, % (test concentration not listed);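 active means over half of replicate activation scores above 10%, or exactly half above 10 with the replicate mean above 10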;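 further: wells of about 30 µL received 50 nL stock; many hits fall short of the cut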
Ecoli rRNA inh OD600: second read-out of Ecoli rRNA inh, no call of its own (marks repeat the call); OD600 change, %; measured here: OD600 growth;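 optical density of the mix in the first replicate; 0 = DMSO median and -100 = no signal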
Ecoli rRNA inh RFP: second read-out of Ecoli rRNA inh, no call of its own (marks repeat the call); RFP signal change, %; measured here: RFP humanized mutant strains;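 first replicate; 0 = DMSO median and -100 = no signal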
* = called active by the depositor; i = inactive; . = no result given. A portion of the library. The share of hits here may be higher or lower than overall.

SMILES | Ecoli growth | MLL AF4-AF9 inh | T cruzi repl | Beta cell apopt | FGF22 binding | UCH37 DUB inh | Ecoli rRNA inh | Ecoli rRNA inh OD600 | Ecoli rRNA inh RFP | A1 inh
O=C(CN1C(=O)c2ccccc2S1(=O)=O)Nc1ccc(S(=O)(=O)N2CCCCCC2)cc1 | 0.7 | . | 4 | -3 | . | 4.8 | . | . | . | 0.1
O=C(Oc1ccc2c(-c3ccccc3)cc(=O)oc2c1)C1CCCCC1 | 0.7 | . | 5 | . | . | 1.3 | . | . | . | -0.6
Cc1cccc(N(Cc2cc3cc(C)ccc3[nH]c2=O)C(=O)c2cccs2)c1 | 0.69 | -5.8 | 24 | 6 | i | -5.4 | 7 | 4 | 4.1 | 0.9
CCN(CC)S(=O)(=O)c1ccc(NC(=O)CN(c2ccc(OC)cc2OC)S(C)(=O)=O)cc1 | 0.7 | . | 11 | 4 | . | 4.9 | . | . | . | -0.7
Cc1ccccc1NS(=O)(=O)c1cccc(-c2nnc(-c3ccccc3)o2)c1 | 0.73 | . | 23 | 7 | . | -1.0 | . | . | . | 0.7
CN1C/C(=C/c2ccncc2)C(=O)/C(=C/c2ccncc2)C1 | 0.67 | -4.8 | -21 | 0 | i | 7.6 | 8 | 9 | -2.2 | 2.1
CCc1c(C(=O)c2ccc(Cl)cc2)oc2c(C)c3oc(=O)cc(C)c3cc12 | 0.73 | . | -18 | -14 | . | -2.0 | . | . | . | 1.1
CCCCC1(C2CCCC2)NC(=O)NC1=O (stereo not given) | 0.68 | -0.8 | . | . | i | 0.6 | 8 | 11 | 0.7 | .
CC(C)CCNC(=O)c1cc2c(=O)n3ccccc3nc2s1 | 0.69 | -22 | -4 | 11 | i | i | -18 | -13 | -0.1 | -2.8
CC1CCN(CCC(=O)Nc2ccc(Br)cc2)CC1 | 0.68 | . | -6 | -4 | . | 3.9 | . | . | . | 0.7
Oc1ccccc1-c1cc(-c2ccc(Cl)cc2)n[nH]1 | 0.68 | -13 | -3 | . | i | 4.8 | -44 | -65 | -8.7 | -6.7
COc1cc(CN2CCC(n3nccc3NC(=O)c3ccccc3OC)CC2)ccc1F | 0.71 | -0.3 | 17 | 3 | i | 2.8 | -7 | -3 | -1.9 | 0.4
O=C(Cc1cccs1)N1CCN(c2ccc(F)cc2)CC1 | 0.73 | . | -21 | 0 | . | 1.1 | . | . | . | 1.0
CC1C(=O)C(C)C(c2ccc([N+](=O)[O-])cc2)NC1c1ccc([N+](=O)[O-])cc1 (stereo not given) | 0.71 | -10 | 67* | 2 | i | 2.0 | 5 | -1 | 3.1 | -1.0
CC(=O)Cc1nsc(NC(=O)c2ccc(F)cc2)n1 | 0.69 | -1.3 | -23 | -3 | . | 2.4 | -5 | 3 | -0.6 | -0.2
COc1ccc(CCC(=O)Nc2ccccc2C(F)(F)F)cc1 | 0.71 | . | -7 | 1 | . | 1.0 | . | . | . | 0.5
O=C(NCc1ccco1)c1cc(-c2cccnc2)nc2ccc(Cl)cc12 | 0.74 | . | 25 | 1 | . | 0.0 | . | . | . | 0.9
O=[N+]([O-])c1ccc2c(c1)C(N1CCOCC1)/C(=C/C1(O)CCCCC1)O2 (stereo not given) | 0.67 | 0.6 | -8 | 3 | i | 8.2 | 3 | 0 | 3.2 | 1.3
COc1ccc(Cn2nnnc2C(c2ccc(C)cc2)N2CCN(C3CCCC3)CC2)cc1 (stereo not given) | 0.78 | . | 14 | 2 | . | 7.2 | . | . | . | -0.3
COc1ccc(C2(C)NC(=O)N(CC(=O)Nc3ccc4ccccc4c3)C2=O)cc1OC (stereo not given) | 0.72 | -1.9 | . | . | i | -2.0 | -3 | -10 | 6.8 | .
C=CCOc1ccc(C(=O)Nc2ccc(OCC)cc2)cc1 | 0.68 | -1.3 | -4 | 0 | . | 5.2 | 8 | 7 | -0.2 | -0.4
COC(=O)c1sc(N2C(=O)C(O)=C(C(=O)c3ccc(C)o3)C2c2cccs2)nc1C (stereo not given) | 0.66 | 0.5 | -19 | -3 | i | 2.5 | -10 | -11 | 11 | -0.9
C=CCSc1nnc2c(n1)OC(c1ccco1)Nc1ccccc1-2 (stereo not given) | 0.71 | 0.1 | -5 | -4 | i | 4.3 | . | . | . | 0.3
CCCCN(C)Cc1c(C)[nH]c2ccc(OCC)cc2c1=O | 0.73 | -9.5 | -2 | 2 | i | -63 | 9 | 14 | 6.3 | 0.4
COc1ccccc1N1CCN(C(CNS(=O)(=O)c2cc(F)ccc2F)c2cccnc2)CC1 (stereo not given) | . | 11 | 65* | 1 | i | 1.6 | 1 | -1 | 1.9 | 0.5

Results in Ecoli growth (2 entries from above):
Molecule | Ecoli growth
O=C(Oc1ccc2c(-c3ccccc3)cc(=O)oc2c1)C1CCCCC1 | 0.7
Cc1cccc(N(Cc2cc3cc(C)ccc3[nH]c2=O)C(=O)c2cccs2)c1 | 0.69

An excerpt from above in order of their number in Ecoli rRNA inh RFP, smallest number first:
canonical_smiles,MLL AF4-AF9 inh,FGF22 binding,UCH37 DUB inh,Ecoli rRNA inh,Ecoli rRNA inh OD600,Ecoli rRNA inh RFP
Oc1ccccc1-c1cc(-c2ccc(Cl)cc2)n[nH]1,-13,i,4.8,-44,-65,-8.7
COc1cc(CN2CCC(n3nccc3NC(=O)c3ccccc3OC)CC2)ccc1F,-0.3,i,2.8,-7,-3,-1.9
CC(=O)Cc1nsc(NC(=O)c2ccc(F)cc2)n1,-1.3,.,2.4,-5,3,-0.6
CCCCN(C)Cc1c(C)[nH]c2ccc(OCC)cc2c1=O,-9.5,i,-63,9,14,6.3

(next part)
SMILES | Ecoli growth | MLL AF4-AF9 inh | T cruzi repl | Beta cell apopt | FGF22 binding | UCH37 DUB inh | Ecoli rRNA inh | Ecoli rRNA inh OD600 | Ecoli rRNA inh RFP | A1 inh
O=C(NNC1CC(=O)N(c2ccc(Cl)cc2)C1=O)c1ccco1 (stereo not given) | 0.71 | -0.7 | -4 | 3 | i | -0.6 | 16 | 6 | 2.2 | 0.1
CCC(C)N1CC(C(=O)O)CC1=O (stereo not given) | 0.71 | . | -9 | -6 | . | 2.5 | . | . | . | -0.1
Cc1ccccc1OCCC(=O)OCC(=O)NC1CCS(=O)(=O)C1 (stereo not given) | 0.65 | -8.7 | -5 | . | i | 3.6 | 3 | 8 | -2.1 | 0.7
C[C@H](NC(=O)c1ccco1)C(=O)N1CCCC1 | 0.68 | -1.7 | -16 | -2 | i | 6.8 | 2 | 6 | -0.2 | -1.8
CC(C)(C)NC(=O)C(c1ccncc1)N(Cc1cccs1)C(=O)c1csnn1 (stereo not given) | 0.72 | -12 | -5 | 3 | i | -1.7 | 2 | 16 | -11 | 0.1
Cc1ccc(OCC(=O)N/N=C\c2cccs2)c([N+](=O)[O-])c1 | . | -0.5 | -2 | -1 | i | . | 0 | 3 | -1.0 | 0.6
CCCC[n+]1ccn(C2=C([O-])c3ccccc3C(=O)/C2=N\S(=O)(=O)c2ccccc2)c1 | 0.73 | . | 1 | 46 | . | 41* | . | . | . | -1.2
COc1cccc(CNC(=O)C(NS(=O)(=O)c2ccc3c(c2)CCN3C(C)=O)C(C)C)c1 (stereo not given) | 0.61 | 1.0 | -8 | 1 | i | 1.4 | 23 | 11 | 0.9 | 0.5
O=c1sc2ccccc2c(N2CCN(c3ccccc3)CC2)c1[N+](=O)[O-] | 0.71 | -0.2 | -13 | -3 | . | 8.4 | 7 | 2 | -10 | -4.1
Cc1cc(Nc2ccccc2Cl)c2ccccc2n1 | 0.63 | -2.2 | 17 | 17 | . | 4.7 | -3 | -3 | 0.9 | 0.9
Cc1ccc(-c2cc3nc(-c4ccccc4)cc(N4CCC5(CC4)OCCO5)n3n2)cc1 | 0.72 | . | -3 | 4 | . | -104 | . | . | . | -1.0
COC(=O)C1=C(C)N(Cc2ccccc2)C(=NCc2cc(OC)c(OC)c(OC)c2)N[C@H]1c1cccc(F)c1 | . | . | 22 | -4 | . | 1.0 | . | . | . | 0.8
COCCNC(=O)CN1CCC(NC(=O)Nc2ccccc2)CC1 | 0.74 | . | -7 | -3 | . | -0.2 | . | . | . | -0.5
COc1cccc(NC(=O)C(=O)NCCC2CCCCN2S(=O)(=O)c2ccccc2)c1 (stereo not given) | 0.69 | -2.1 | 7 | . | i | 1.1 | 0 | -28 | 13 | -0.6
COc1ccc(N)cc1S(=O)(=O)Nc1ccccc1Cl | 0.71 | 1.1 | 3 | -4 | i | 7.0 | 5 | 9 | 2.8 | 2.3
COc1ccc(C(=O)N[C@H](C(=O)OCCCOC(=O)[C@@H](NC(=O)c2ccc(OC)cc2)C(C)C)C(C)C)cc1 | 0.68 | 0.0 | . | . | i | 0.7 | -5 | 2 | 3.9 | .
O=C(CSc1cccc2cccnc12)Nc1cccc(S(=O)(=O)N2CCOCC2)c1 | 0.69 | 0.8 | -13 | 0 | i | -61 | -11 | -3 | -6.5 | -0.2
O=C(Nc1nc2ccc(C(=O)N3CCCCC3)cc2s1)C1CCCCC1 | 0.73 | -0.9 | -31 | 33 | i | 0.4 | 15 | 9 | 1.3 | 0.3
Cc1ccnn1CCC(=O)N1CCCC(CCC(=O)NCc2ccccc2F)C1 (stereo not given) | 0.68 | -0.7 | 5 | -7 | i | -0.5 | 17 | 19 | 3.4 | -0.3
CCN1C(=O)N[C@H](c2ccccc2)C(C(C)=O)=C1C | . | 1.8 | -15 | -4 | i | 1.1 | 8 | 19 | 2.5 | 0.2
Clc1ccc(N2CCN(c3nc4nonc4nc3N3CCSCC3)CC2)nc1 | 0.67 | 11 | 24 | 2 | i | 6.2 | 6 | 4 | -0.8 | -1.1
CCOc1ccccc1OCCCC(=O)NNC(=O)c1cc(C)oc1C | 0.71 | -0.6 | . | . | i | -1.3 | -4 | 8 | 2.3 | .
O=C(CSc1ncn(-c2ccccc2)n1)N1CCN(c2ccccc2)CC1 | 0.69 | . | 8 | -3 | . | 1.1 | . | . | . | -2.1
O=C(N/N=C/C=C/c1cccc([N+](=O)[O-])c1)c1ccncc1 | . | -0.5 | 0 | . | i | . | 12 | 5 | -2.6 | 0.2
Cc1onc(-c2ccccc2Cl)c1C(=O)N1CCOC12CCCCC2 | 0.69 | -4.1 | 15 | -1 | i | 0.3 | -2 | 1 | -3.2 | 0.5
The list continues.
SMILES | Ecoli growth | MLL AF4-AF9 inh | T cruzi repl | Beta cell apopt | FGF22 binding | UCH37 DUB inh | Ecoli rRNA inh | Ecoli rRNA inh OD600 | Ecoli rRNA inh RFP | A1 inh
O=C(NC1CCCC1)c1cc(-c2cccs2)on1 | 0.7 | . | 3 | 9 | . | 1.4 | . | . | . | -2.0
CCCCNC(=O)CC(C(=O)N1CCc2ccccc21)n1ccnc1 (stereo not given) | 0.67 | . | -7 | 0 | . | 0.4 | . | . | . | -0.3
CC(Sc1n[nH]c(=O)n1Cc1ccccc1)C(=O)NC1CCCCC1C (stereo not given) | 0.66 | -15 | -8 | -3 | i | -0.5 | 3 | -4 | -2.9 | -0.1
CCOC(=O)N1CCN(C(=O)CSC2=NS(=O)(=O)c3ccccc3N2)CC1 | 0.69 | -1.0 | -4 | -4 | i | -1.3 | 7 | 8 | 0.7 | 1.4
COC(=O)c1c(C)[nH]c(C)c1-c1ccc(C)cc1 | 0.69 | . | 21 | 0 | . | 4.4 | . | . | . | 1.4
CC(C)Cc1nc(N2CCOCC2)c(C#N)c2c1CCC2 | 0.68 | . | 10 | -9 | . | -50 | . | . | . | -0.9

High-throughput results from PubChem.
